Bioassay records (PubChem)
PINK1 expr mod = A Quantitative High throughput Screen to Identify Chemical Modulators of PINK1 Expression. PINK1 immunofluorescence, high-content cytometry, 24 h. Potency, µM (top dose mostly 76.6 µM), for inactives: top-dose activation (PINK1 increase), most hits filed as activators. AID 624263, 2012. 0.2% of 410,000 active; active = well fitted activation curve with a large enough effect; inconclusive = small, poorly fitted or top-dose-only effect; inactive = flat fitted curve, though single readings scatter; cell line not stated here;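 note: potency is the fitted concentration of half-maximal effect; % of control where 0% means no effect; nearly all actives have a fitted effect of over 65% in size; a mitochondrial uncoupler was the plate control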
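PINK1 protein, normally rapidly degraded, was detected by immunofluorescence after 24 hour compound treatment of a stable cell line. Titration data (5 concentrations) came from laser-scanning cytometry, with CCCP-treated wells as controls.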
Sfp PPTase inh = qHTS Assay for Inhibitors of Bacillus subtilis Sfp phosphopantetheinyl transferase (PPTase) | Potency, µM, for the others: max response, negative = inhibition, most hits filed as inhibitors | Biochemical Sfp PPTase activity, qHTS | 3.5% of 310,000 active | 4'-phosphopantetheinyl transferase ffp (Bacillus subtilis), Q9F4F7; active = well fitted inhibition curve with a large enough effect; inconclusive = small, poorly fitted or top-dose-only effect, or another doubt; inactive = no such curve, though single readings can be large or run the other way;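 note: the enzyme is Sfp with the accession as filed and its product quenches rhodamine fluorescence; potency is the fitted concentration of half-maximal effect; 0% = enzyme reaction without inhibitor and -100% = no enzyme wells; top concentration of the series not given in the record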
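Reaction rates are the 30-min fluorescence difference (ex 525, em 598 nm) in wells containing 15 nM Sfp, 5 uM rhodamine-CoA and 12.5 uM BHQ-2-YbbR at pH 7.6 with 10 mM MgCl2.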
TRPML1 ag = qHTS for Agonists of the Human Mucolipin Transient Receptor Potential 1 (TRPML1); TRPML1-expressing cells, Ca2+ dye fluorescence, FDSS; host cell line not named in the record; reference of the full effect not given here; activation, % (test concentration not listed); AID 624414, 2012; 0.12% of 410,000 active; Mucolipin-1 (Homo sapiens), Q9GZU1; in the data active = activation above about 50%; inconclusive = about 30% to 50%; inactive = below about 30%; note: 0% is about no effect; the text of the record puts the active cut at 80%
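Agonist activity was taken from a 110 s kinetic Ca2+ dye read on the FDSS after pinning compounds onto TRPML1-DL cells. The cells were seeded at 1,500/well with Tet inducer, incubated about 16 h, then dye-loaded at room temperature.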
TRPML1 blocker = qHTS for Inhibitors of the Human Mucolipin Transient Receptor Potential 1 (TRPML1) | Mucolipin-1 (Homo sapiens), Q9GZU1 | TRPML1-inducible cells, Ca2+ dye fluorescence, FDSS; stronger effect = lower value; inhibition of EC80 agonist-evoked calcium signal | activity change, negative = inhibition, % (test concentration not listed) | 0.02% of 390,000 active | AID 624415, 2012; in the data active means activity change below about -50%; inconclusive means about -30% to -50%; inactive means above about -30%;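 note: stimulus is agonist 54-4 at its EC80 concentration; % is set by controls: 0 for no effect and ±100 for the full control effect; compound concentration not given in the record; the text of the record puts the active cut at -80%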
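Tet-induced TRPML1-DL cells loaded with Ca8 no-wash calcium dye were read kinetically on FDSS. Compound addition was followed by EC80 agonist 54-4 (4 uM final); inhibition was read over 110 s.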
ClpP mod = qHTS Assay for Activators of ClpP | 1.9% of 340,000 active | Potency, µM (doses to about 57.5 µM), for the others: at the top dose activity change, negative = active | purified B. subtilis ClpP, FRET peptide cleavage, 20 min | ATP-dependent Clp protease proteolytic subunit (Bacillus subtilis (strain 168)), P80244; active = well fitted falling curve with a large enough effect; inconclusive = small, poorly fitted or top-dose-only effect; inactive = no such curve, though single readings can be large or run the other way; note: potency is the fitted concentration of half-maximal effect; the source files actives as falling curves though it sought activators and does not explain the sign; nearly all actives have a fitted effect of over 65% in size; many hits overshoot -100%
Target sequence (P80244 whole entry, looked up): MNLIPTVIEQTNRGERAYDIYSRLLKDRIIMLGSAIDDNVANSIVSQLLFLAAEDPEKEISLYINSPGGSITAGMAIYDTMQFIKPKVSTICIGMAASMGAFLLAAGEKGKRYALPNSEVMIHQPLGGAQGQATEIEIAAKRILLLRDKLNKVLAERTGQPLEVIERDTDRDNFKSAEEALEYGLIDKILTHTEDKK
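ClpP 10 microg/mL final, pH 8 Tris/KCl buffer with BSA, glycerol, Tween-20; compound pinned in; FRET-FV substrate; RT 20 min; Ex320/Em430; ΔFRET vs ADEP 5.8 microM, DMSO, no enzyme.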
TRPV1 PAM = HTS Assay for Compounds that Act as Potentiators of the Vanilloid Receptor 1; Transient receptor potential cation channel subfamily V member 1 (Homo sapiens), Q8NER1; TRPV1-expressing cells, Fluo-8 calcium influx, capsaicin EC20 potentiation; host cell line not named in the record; control for the full effect not named in the record; potentiation, % at 8.33 µM; 0.02% of 320,000 active; AID 540277, 2011; active means potentiation above 80%; inconclusive means 30% to 80%; inactive means below 30%; note: 0% is about no effect
Target sequence (Q8NER1 whole entry, looked up): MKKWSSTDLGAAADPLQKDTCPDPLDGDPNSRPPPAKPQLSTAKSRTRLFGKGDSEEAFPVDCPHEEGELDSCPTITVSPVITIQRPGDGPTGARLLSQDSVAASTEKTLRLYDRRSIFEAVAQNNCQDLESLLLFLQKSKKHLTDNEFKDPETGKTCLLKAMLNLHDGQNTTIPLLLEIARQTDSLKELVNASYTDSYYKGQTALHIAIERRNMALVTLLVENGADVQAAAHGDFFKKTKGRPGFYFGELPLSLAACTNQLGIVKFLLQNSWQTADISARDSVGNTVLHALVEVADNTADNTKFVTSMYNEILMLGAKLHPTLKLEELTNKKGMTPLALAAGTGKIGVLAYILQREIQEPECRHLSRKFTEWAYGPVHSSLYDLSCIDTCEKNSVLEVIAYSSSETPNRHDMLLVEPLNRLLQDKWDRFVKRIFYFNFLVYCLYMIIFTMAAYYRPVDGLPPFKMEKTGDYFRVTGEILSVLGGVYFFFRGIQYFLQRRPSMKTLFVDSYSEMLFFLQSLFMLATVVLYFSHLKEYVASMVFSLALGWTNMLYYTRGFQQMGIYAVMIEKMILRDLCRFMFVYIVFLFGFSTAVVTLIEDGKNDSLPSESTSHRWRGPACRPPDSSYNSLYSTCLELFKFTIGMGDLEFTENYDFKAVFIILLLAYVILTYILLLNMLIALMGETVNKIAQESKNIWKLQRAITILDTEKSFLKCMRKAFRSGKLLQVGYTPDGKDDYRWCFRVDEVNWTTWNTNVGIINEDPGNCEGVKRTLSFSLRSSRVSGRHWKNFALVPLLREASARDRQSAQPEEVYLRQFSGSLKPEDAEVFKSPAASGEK
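Fluo-8 calcium influx in TRPV1-expressing cells, kinetic read (ex 480/em 520 nm). Compound added and read 3 min for agonist activity, followed by capsaicin at EC20 final and 2 min further read for enhancement.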
Menin-MLL FL inh = qHTS Assay for Inhibitors Targeting the Menin-MLL Interaction in MLL Related Leukemias: Competition With Fluorescein Labeled MLL-derived Peptide; Fluorescence polarization, fluorescein-MLL peptide displacement from menin; FP activity change, % at 61.4 µM; 290,000 tested, under 10 active; inconclusive = falling polarisation curve, or a change in total fluorescence; inactive = total fluorescence flat and polarisation flat or rising; no compound was filed as active; the % refers to the polarisation; negative = inhibition;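 note: % of control where 0% means no effect; inhibitors lower the polarisation; unlabelled MLL peptide was the positive control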
An asterisk follows results filed as active; ? = inconclusive; / = no result given; & = joins results of further samples; [ ] = remark or other dose.

structure,PINK1 expr mod,Sfp PPTase inh,TRPML1 ag,TRPML1 blocker,ClpP mod,TRPV1 PAM,Menin-MLL FL inh
CCOC(=O)c1c(NC(=O)CN2C(=O)NC3(CCCCC3C)C2=O)sc(C)c1CC (configuration not stated),-0.3%,/,1.2,18,-15%,-2,/
COc1ccc(CNC(=O)COC(=O)c2ccc(S(=O)(=O)N3CCCCC3)cc2)cc1,5.5%,/,0.7,-7,-1.5%,/,/
COc1ccc(CN(C)Cc2nc3scc(-c4ccccc4)c3c(=O)[nH]2)cc1OC,12%,20%,-0.1,?,-5.1%,3,5.0
CCOC(=O)C1=C(C)N(CCCCCC(=O)O)C(=O)NC1c1ccc(Cl)cc1 (configuration not stated),-0.7%,4%,-0.1,10,0.4%,16,-1.1
CCC1CCCCN1CCNC(=O)CNS(=O)(=O)c1ccc2nc(C)sc2c1 (configuration not stated),0.7%,14%,-0.5,2,-3.6%,1,1.1
Cc1ccc(-n2ncc3c(=O)n(CC(=O)NC4CCCCC4)cnc32)cc1,-0.7%,11%,-0.7,24,-23%,-5,3.9
CCC(=O)C1=C(c2ccc(Cl)cc2)N(C(=O)CC)n2c(C)nnc2S1,19%,/,-0.2,-2,-1.6%,/,/
CN(C)CCCNC(=O)c1cc(Br)ccc1O,0.0%,2%,1.0,4,/,-16,4.1
O=C(NCc1csc2ccccc12)Nc1cc(Cl)cc(Cl)c1,21%,-7%,0.1,2,-21%,11,1.4
COCCCNCC(O)C(F)(F)F (configuration not stated),0.9%,7%,-0.3,2,2.1%,-4,1.8
COc1ccc(C)cc1S(=O)(=O)Nc1cc(Cl)ccc1Cl,2.4%,13%,-0.1,-3,-1.3%,-1,2.6
COc1cc(/C=N/O)ccc1Oc1cnccn1,-0.4%,18%,0.0,3,/,16,2.3
CCOC(=O)c1ccc(-c2ccc3oc(-c4ccsc4)cc(=O)c3c2)cc1F,-0.1%,/,-0.4,-7,-3.0%,/,/
COc1cccc([C@@H]2Oc3ccc(Br)cc3C(=O)[C@H]2OC(=O)NC2CCCC2)c1,?,-2%&-1%,4.0,1,0.8%,2,4.4&-0.3
COc1ccc([C@H]2CC(=O)C=C(c3ccc4ncccc4c3)C2)cc1OC,5.3%,/,-0.6,-11,0.6%,/,/
Cc1ccc(-c2nc3cc(Cl)ccc3o2)cc1,0.9%,-4%,-0.2,29,35µM*,0,-5.6
Cc1cccc(CNc2nc(-c3cccnc3)nc3ccccc23)c1,5.3%,?,/,/,/,/,1.0
CCC(C)N(C(=O)COc1ccc(-c2nnco2)cc1)C1CCS(=O)(=O)C1 (configuration not stated),0.4%,/,0.7,6,0.2%,1,/
Cc1cc(NC(=O)c2sccc2C)n(-c2cccc(Cl)c2)n1,-0.4%,-5%,0.7,-11,1.4%,-3,6.7
CC(=O)Nc1cccc(NC(=S)Nc2cccc(Cl)c2C)c1,0.5%,-11%,1.1,-11,-3.6%,14,-1.2
O=C(NCc1ccccn1)/C(=N/O)c1ccccc1,1.9%,-7%,-0.9,20,1.3%,0,0.3
c1ccc(-n2nnnc2Oc2ccc(-n3ccnc3)cc2)cc1,3.1%,11%,-0.5,37,0.5%,-6,-0.5
CCN(CC)CCN1C(=O)C(=O)/C(=C(/O)c2c(C)[nH]c(C(=O)OC)c2C)C1c1ccccc1 (configuration not stated),-2.0%,17%,-0.4,-14,-3.3%,-1,1.8
COc1ccc(CNC(=O)[C@H](Cc2c[nH]c3ccccc23)NC(=O)[C@@H]2Cc3ccccc3CN2)cc1,2.4%,8%,0.3,-4,0.1%,10,-0.2
Cc1ccc(S(=O)(=O)N2CCN(C3CC4CCC3C4)CC2)cc1 (configuration not stated),1.0%,-27%,1.6,44,/,-15,0.3
CCOC(=O)N1CCN(Cc2ccc3ccccc3c2)CC1,-1.7%,-24%,-0.8,-4,-0.5%,-6,1.6
COc1ccc(-c2oc3ccc(-c4cc(OC)c(OC)c(OC)c4)cc3c2-c2ccc(OC)nc2)cc1,2.7%,-21%,-0.5,-8,4.1%,0,-5.9
Cc1ccc(C)c(N2C(=N)S/C(=C\c3ccc(-c4ccccc4C(=O)O)o3)C2=O)c1,-0.2%,-21%,2.7,-10,/,0,?
COc1ccc(NS(=O)(=O)c2cccc(C(=O)NCC3(N4CCCCC4)CCCCC3)c2)cc1,0.2%,/,0.6,31,-27%,0,/
FC(F)(F)c1cnc(C(c2ccccc2)c2ncn[nH]2)c(Cl)c1 (configuration not stated),0.9%,10%,0.1,-6,/,-10,-6.7

Quoted from above, two compounds:
structure,PINK1 expr mod,Sfp PPTase inh,TRPML1 ag,TRPML1 blocker,ClpP mod,TRPV1 PAM,Menin-MLL FL inh
CCOC(=O)c1c(NC(=O)CN2C(=O)NC3(CCCCC3C)C2=O)sc(C)c1CC (configuration not stated),-0.3%,/,1.2,18,-15%,-2,/
COc1ccc(CNC(=O)COC(=O)c2ccc(S(=O)(=O)N3CCCCC3)cc2)cc1,5.5%,/,0.7,-7,-1.5%,/,/

Next part:
structure,PINK1 expr mod,Sfp PPTase inh,TRPML1 ag,TRPML1 blocker,ClpP mod,TRPV1 PAM,Menin-MLL FL inh
COC(=O)/C(C#N)=C/c1ccc(C)o1,2.8%,24%,-0.1,-11,1.2%,16,1.6
O=C(NCc1ccccc1)c1ccc2nccnc2c1,2.0%[38.3 µM],2%,0.2,-1,0.5%,9,-0.6
COc1cccc(NC(=S)N2CCN(c3ccccn3)CC2)c1,1.2%,11%,-0.5,-8,0.3%,14,4.7
CN(C)CC/C=C1/c2ccccc2CS(=O)(=O)c2ccccc21,1.2%,/,1.3,-13,/,/,/
Cc1cc(C=O)c(C)n1-c1ccc(Oc2ccc([N+](=O)[O-])cn2)cc1,-1.0%,-19%,0.0,-3,1.0%,-47,/
Cn1cccc1CC(=O)N/N=C/C(Cl)=C/c1ccccc1,0.9%,5%,-0.6,-9,1.6%,1,1.8
S=C(NCc1ccccn1)Nc1ccccc1,1.6%,1%,0.4,-6,/,-4,6.5
CC1(C)CC(=O)C2=C(C1)OC(N)=C(C#N)C2c1ccc(OC(=O)N2CCOCC2)cc1 (configuration not stated),-1.9%[38.3 µM],7%,-0.4,-4,0.2%,7,-0.5
O=C(OCC(=O)N1CCCC1=O)c1cc2ccccc2o1,0.7%,/,-0.3,-29,/,-22,/
O=C(Nc1nc2ccc(S(=O)(=O)N3CCCC3)cc2s1)c1ccco1,12%,3%,0.1,5,-17%,-18,12
COc1cccc(C2c3cc4c(cc3OC(C)(N3CCCC3)C2C)OCO4)c1O (configuration not stated),1.6%,/,0.5,-3,1.9%,/,/
CCOc1ccc(CCNC(=O)C2CCCN(c3ncnc4c3nc3n4CCCCC3)C2)cc1 (configuration not stated),-1.2%,16%,1.8,-4,/,-1,-2.5
COCCCNC(=O)CC1C[C@H](C(=O)N2CCCCC2)[C@@]2(C)c3[nH]c4ccc(OC)cc4c3CCN2C1=O (some centres not stated),-0.3%,/,-0.4,30,-12%,/,/
Nc1nc(N)c(N=O)c(OCC2CCCCC2)n1,4.3%,13%&3%,0.2,-22,0.0%,-4,0.0&-2.7
O=C(Nc1ccc2c(c1)OCCO2)c1cc(-n2cnnc2)ccc1Cl,0.9%,5%,-0.4,-3,-1.7%,2,3.0
CC(=O)Nc1cc2c(cc1NC(=O)Cn1nc(-c3ccc(F)cc3)ccc1=O)OCCO2,11%,11%,-0.3,5,/,9,3.5
Cc1cccc(Nc2nc(N)c([N+](=O)[O-])c(N3CCN(C)CC3)n2)c1,-1.5%,-2%,-0.2,-16,-21%,1,-0.8
O=C1CC(c2ccc(Cl)cc2)n2nc(N3C(=O)CCC3=O)nc2N1 (configuration not stated),?,-1%,1.1,-12,-12%,-3,-1.4
CC(C)(C)c1ccc(C(=O)O/N=C(\N)c2ccccn2)cc1,-1.5%,17%,2.4,14,-1.6%,-11,3.4
O=C(NCc1ccco1)c1cc(NS(=O)(=O)c2cccc([N+](=O)[O-])c2)ccc1O,-1.4%,8%,0.0,19,/,0,-0.5
CCN(CC)S(=O)(=O)c1ccc(C(=O)NCc2ccc(C)cc2)cc1,-2.2%,7%,3.7,4,-0.6%,-12,0.4
CCOC(=O)c1c(C)[nH]c(C)c1S(=O)(=O)N1CCC(C(=O)Nc2cc(Cl)ccc2OC)CC1,0.1%,/,0.1,0,-6.6%,/,/
COc1ccc(CNc2nc3ccccc3s2)cc1OC,0.3%,5%,-0.6,5,/,10,-5.7
O=C(NC1CC1)c1ccc(NC(=O)C2CCCC2)cc1,-0.1%,/,0.2,-12,1.6%,/,/
Cc1ccc(CNC(=O)[C@H](Cc2ccccc2)NC(=O)C2CCNCC2)cc1,-0.7%,6%,-0.6,-20,-1.7%,7,1.1
COc1cc(OC)c(C(=O)OCC(=O)N2CCOCC2)cc1OC,0.3%,3%,0.5,-2,/,2,1.6
Cc1cc(NC(=O)CN(C)S(=O)(=O)c2ccc(-c3ccc(=O)[nH]n3)s2)ccc1Br,3.5%,17%,-0.2,5,-3.3%,-30,3.2
CSCC[C@H](NC(=O)NCc1cccs1)C(=O)O,0.5%,6%,-0.8,8,-2.3%,8,-0.9
Clc1ccccc1-c1ccc(CN2CCN(c3ccccc3)CC2)o1,1.2%,?,1.9,-16,0.1%,17,4.6
Cc1ccc(CCNc2nc3c(S(=O)(=O)c4ccccc4)nnn3c3ccsc23)cc1,0.8%,/,0.0,1,-25%,/,/
O=C(CSc1nnc(C2CCCCC2)o1)Nc1ccccc1Cl,5.3%,0%,0.6,43,-0.3%,-11,5.7
Cc1ccc2c(Cl)cc(Cl)c(OCC(=O)NC(C)(C)C)c2n1,2.6%,0%,0.4,36,-13%,-22,-2.4
Cc1nnc(NC2=NCCCCC2)o1,2.8%,3%,0.1,5,-0.9%,-5,-0.3
